Bioassay records from PubChem BioAssay.
Mtb bLac sens = beta-lactam sensitization of Mtb H37Rv, H37Rv | inhibition, % at 25 µM | M. tuberculosis H37Rv growth with meropenem, percent inhibition; hits of this screen are not shown here | 330,000 tested, 0.27% active;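 active means about 74% or more and at least 40 points above the plate without the antibiotic, then above 30% in a dose series; inconclusive means first-round hits that could not be retested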;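 further: growth measured after seven days incubation then overnight dye step; 0% = bacteria only wells and 100% = bacteria with antibiotic; twin plates without the antibiotic show which effects depend on it; some results filed as inactive read as strong as hits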
Arbovirus inh = antivirals against arbovirus infection, primary screen, cell-based, full library, 10K replicate subset. 200,000 tested, 0.37% active. inhibition, % at 10 µM. arbovirus infection cell-based antiviral screen;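 active means inhibition from about 30%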;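 further: bluetongue infection of BSR cells; cell survival read as ATP light after 72 h; 0% = infected wells without compound and 100% = uninfected wells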
YopH inh = YopH tyrosine phosphatase inhibitors, primary screen, biochemical, fluorescence Ex485/Em525; AID 898, 2007; YopH tyrosine phosphatase [Yersinia enterocolitica]; inhibition, %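 (about 10 µM by stock and volumes)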; 140,000 tested, 0.16% active;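 active means inhibition of 50% or more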;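 further: controls were vehicle for no effect and minimum signal wells for full effect; inactives centre near -20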
Mtb growth = M. tuberculosis H37Rv growth inhibitors, H37Rv strain (AID 1626). M. tuberculosis H37Rv growth inhibition; higher % means a stronger effect. inhibition, % at 10 µM; hits with a dose series show IC50 in µM. 220,000 tested, 0.95% active;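 active means confirmed in a dose series; inconclusive means inhibition above 80% but not taken into the dose series; inactive means below 80% or under 30% at every dose of the series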;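 further: bacteria incubated seven days before Alamar blue readout; 0% = bacteria only wells and 100% = bacteria with antibiotic wells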
RecA splice inh = Mtb RecA intein splicing inhibitors, primary screen, biochemical, fluorescence, HTS. Protein RecA (Mycobacterium tuberculosis (strain ATCC 25618 / H37Rv)), P9WHJ3. cell-free RecA intein splicing. inhibition, %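 (about 9 µM by stock and volumes)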. 290,000 tested, 0.75% active; in the data active means inhibition above about 30%; inconclusive means no clear call, values can overlap the other calls;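 further: 0% = vehicle wells and 100% = reference inhibitor control wells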
Target sequence (P9WHJ3 whole entry, looked up, canonical isoform): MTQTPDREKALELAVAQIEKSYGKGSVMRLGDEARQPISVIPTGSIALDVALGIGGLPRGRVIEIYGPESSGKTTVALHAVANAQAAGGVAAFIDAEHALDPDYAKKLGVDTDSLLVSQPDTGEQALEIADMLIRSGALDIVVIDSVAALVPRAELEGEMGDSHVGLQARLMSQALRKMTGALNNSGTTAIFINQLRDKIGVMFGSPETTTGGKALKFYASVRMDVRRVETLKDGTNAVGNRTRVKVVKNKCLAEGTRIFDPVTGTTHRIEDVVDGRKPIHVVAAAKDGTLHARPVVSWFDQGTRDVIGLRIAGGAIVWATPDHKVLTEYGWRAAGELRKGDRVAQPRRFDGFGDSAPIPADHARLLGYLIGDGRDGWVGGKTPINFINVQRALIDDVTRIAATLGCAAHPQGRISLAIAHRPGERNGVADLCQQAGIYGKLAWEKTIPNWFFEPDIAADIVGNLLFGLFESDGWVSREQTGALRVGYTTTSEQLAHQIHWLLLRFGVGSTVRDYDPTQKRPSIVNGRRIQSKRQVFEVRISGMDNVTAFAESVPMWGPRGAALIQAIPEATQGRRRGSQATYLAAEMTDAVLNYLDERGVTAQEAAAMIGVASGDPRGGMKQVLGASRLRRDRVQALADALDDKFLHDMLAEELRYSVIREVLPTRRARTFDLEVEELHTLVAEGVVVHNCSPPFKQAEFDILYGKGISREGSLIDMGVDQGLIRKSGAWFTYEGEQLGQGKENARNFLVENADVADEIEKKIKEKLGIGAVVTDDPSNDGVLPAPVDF
Arbovirus inh repeat = recorded beside Arbovirus inh, whose call it bears; inhibition, %; measured here: 10K subset replicate screen; many hits read low in the repeat;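 first of two repeat runs on a subset; 0% = infected and 100% = uninfected wells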
Numbers without * were called inactive. Not all compounds are listed; rates above refer to the full screens.

Screening Cc1ccccc1Cn1cc(NC(=O)c2cc(-c3cccs3)on2)cn1 returned Mtb bLac sens 4, Arbovirus inh -35, YopH inh -45, Mtb growth -8% and RecA splice inh -0.4.
Screening COc1ccc(C(=O)N2CCCC(Nc3ccc(C)c(C)c3)C2)c(OC)n1 (configuration not stated) returned Mtb bLac sens inconclusive and RecA splice inh 0.0.
Screening O=C(COc1cccnc1[N+](=O)[O-])NCCc1ccc(Cl)cc1Cl returned Mtb bLac sens -9, Arbovirus inh -10, Mtb growth -3% and RecA splice inh -1.8.
`CCOc1ccc(NC(=O)C2CCCN(S(=O)(=O)c3c(C)noc3C)C2)cc1` (configuration not stated) gave Mtb bLac sens 1 and RecA splice inh -1.4.
For c1ccc(-n2nnnc2-n2ccnc2)cc1 the results were Mtb bLac sens -17, Arbovirus inh 7, YopH inh -5, Mtb growth -1%, RecA splice inh -1.6 and Arbovirus inh repeat 1.
COc1ccc(CNC(=O)CSc2nnc(C)c(=O)[nH]2)cc1 was read as Mtb bLac sens -14, Mtb growth 0% and RecA splice inh 1.5.
`Cc1ccc(C(=O)NC(=S)Nc2ccc(-c3ccc(CO)o3)cc2)cc1` gave Mtb bLac sens 8, Arbovirus inh 5, Mtb growth 17% and RecA splice inh 1.5.
Cc1ccc(Cl)cc1N1CCN(C(=S)NCCc2ccccc2)CC1 was read as Mtb bLac sens 12, Arbovirus inh 2, Mtb growth 72% and RecA splice inh 7.1.
For CC1=C(C)CC(C(=O)Nc2ccc(C(=O)N3CCOCC3)cc2)C(C(=O)O)C1 (configuration not stated) the results were Mtb bLac sens -7, Arbovirus inh 1, Mtb growth -9% and RecA splice inh -2.1.
COc1ccccc1CNC(=O)c1ccc(OC(C)C)cc1 was read as Mtb bLac sens 4, Arbovirus inh -3, Mtb growth -3% and RecA splice inh -0.8.
For Cc1ccc(-c2cc(C(F)(F)F)n3nc(C(=O)NCCCn4ccnc4)cc3n2)cc1C the results were Mtb bLac sens 98, Arbovirus inh -6, YopH inh -40, Mtb growth 85% and RecA splice inh -1.1.
For COc1ccc(C(=O)CSc2nnc(CN3CCCCC3)n2-c2ccc(Cl)cc2)cc1OC the results were Mtb bLac sens -5, Arbovirus inh -7, YopH inh 0, Mtb growth 5% and RecA splice inh 4.5.
COc1ccccc1CC(NC(C)=O)C(=O)NC1CCN(S(=O)(=O)c2ccc(NC(C)=O)cc2)CC1 (configuration not stated) was read as Mtb bLac sens -2 and RecA splice inh 0.5.
For O=C(CSc1ncn(-c2ccccc2)n1)Nc1nc2ccccc2s1 the results were Mtb bLac sens 47, Arbovirus inh 40*, YopH inh 7, Mtb growth -4% and RecA splice inh -0.4.
For Cc1ccc(COc2cccc3c2CCN(Cc2ccc(F)cc2)C3=O)cc1 the results were Mtb bLac sens 19, Arbovirus inh -7, YopH inh -24 and RecA splice inh 11.
For O=C1[C@H]2[C@@H](c3ccc(F)cc3)N3C(=O)N(c4ccccc4)C(=O)[C@@]3(Cc3ccc(Cl)cc3)[C@H]2C(=O)N1C1CCCCC1 the results were Mtb bLac sens -3 and RecA splice inh 2.7.
Screening Cc1cc2cc(CCNC(=O)c3ccc(Br)o3)c(=O)[nH]c2cc1C returned Mtb bLac sens 4, Arbovirus inh 0, YopH inh -42, Mtb growth 3% and RecA splice inh -0.2.
Screening Cc1noc(C)c1CSCC(=O)N(C)CC(=O)Nc1ccccc1Cl returned Mtb bLac sens -13 and RecA splice inh 0.3.
CN(CC(=O)NCc1cccnc1)S(=O)(=O)c1ccc2c(c1)c(=O)n(C)c(=O)n2C was read as Mtb bLac sens -2, Arbovirus inh -2, YopH inh -27, Mtb growth -8% and RecA splice inh 0.4.
Screening CCOc1cc(/C=C(\C#N)C(N)=O)ccc1OS(=O)(=O)c1ccccc1 returned Mtb bLac sens 0, Arbovirus inh -1, YopH inh -40, Mtb growth 1% and RecA splice inh 10.
For CC1CN(C(=O)NCc2ccccc2)c2cc(Cl)ccc2O1 (configuration not stated) the results were Mtb bLac sens 6 and RecA splice inh 1.0.
Screening CCc1ccc(N2C(=O)Nc3ccc(Br)cc3C2(O)C(=O)NCCN(C)C)cc1 (configuration not stated) returned Mtb bLac sens -3 and RecA splice inh 0.8.
Screening COC(=O)c1cc2ccsc2n1CC(=O)N1CCCc2ccccc21 returned Mtb bLac sens -1, Arbovirus inh -3, YopH inh -53, Mtb growth 7% and RecA splice inh -1.3.
`Nc1nc(SCc2ccc([N+](=O)[O-])cc2)c2ncn(C3OC(CO)C(O)C3O)c2n1` (configuration not stated) gave Mtb bLac sens 1, Arbovirus inh -6, YopH inh -34, Mtb growth 52% and RecA splice inh -0.4.

Quoted from the results shown (five entries):
Screening CCOc1cc(/C=C(\C#N)C(N)=O)ccc1OS(=O)(=O)c1ccccc1 returned Mtb bLac sens 0, Arbovirus inh -1, YopH inh -40, Mtb growth 1% and RecA splice inh 10.
For CC1CN(C(=O)NCc2ccccc2)c2cc(Cl)ccc2O1 (configuration not stated) the results were Mtb bLac sens 6 and RecA splice inh 1.0.
Screening CCc1ccc(N2C(=O)Nc3ccc(Br)cc3C2(O)C(=O)NCCN(C)C)cc1 (configuration not stated) returned Mtb bLac sens -3 and RecA splice inh 0.8.
Screening COC(=O)c1cc2ccsc2n1CC(=O)N1CCCc2ccccc21 returned Mtb bLac sens -1, Arbovirus inh -3, YopH inh -53, Mtb growth 7% and RecA splice inh -1.3.
`Nc1nc(SCc2ccc([N+](=O)[O-])cc2)c2ncn(C3OC(CO)C(O)C3O)c2n1` (configuration not stated) gave Mtb bLac sens 1, Arbovirus inh -6, YopH inh -34, Mtb growth 52% and RecA splice inh -0.4.

(continued)
`Cc1cccc(NC(=O)CN(C)S(=O)(=O)c2cccc3cccnc23)c1C` gave Mtb bLac sens -4, Mtb growth 10% and RecA splice inh 0.4.
CCOC(=O)c1c(NC(=O)c2cccnc2Cl)sc(C(=O)N(C)C)c1C was read as Mtb bLac sens 3, Arbovirus inh 17, YopH inh -15, Mtb growth 11% and RecA splice inh -0.2.
`Cc1ccc(-n2nnc3c(=O)n(CC(=O)N4CCCC4)cnc32)cc1` gave Mtb bLac sens 7, Arbovirus inh 3, YopH inh -39 and Mtb growth -7%.
Screening COc1ccccc1NC(=O)CCS(=O)(=O)c1ccc2c(c1)oc(=O)n2C returned Mtb bLac sens -1 and RecA splice inh -1.8.
For Cc1oc2cc(Br)c(O)c(Br)c2c1C(=O)c1ccccc1 the results were Mtb bLac sens 1 and RecA splice inh 13.
Screening O=C(Nc1c(-c2cccs2)nc2ccccn12)c1ccccc1F returned Mtb bLac sens 7, Arbovirus inh 3, Mtb growth 9% and RecA splice inh -0.4.
Screening O=C(Cc1nc2ccccc2[nH]c1=O)c1ccccc1 returned Arbovirus inh 0 and Mtb growth 6%.
Screening O=C(CN(Cc1ccco1)C(=O)CNS(=O)(=O)c1ccccc1)NC1CCCCC1 returned Arbovirus inh 6, YopH inh -36, Mtb growth 5% and RecA splice inh -2.5.
For CC(O)Cc1nsc(NC(=O)c2ccc(Br)o2)n1 (configuration not stated) the results were Mtb bLac sens -5, Arbovirus inh 2, YopH inh -33, Mtb growth 4% and RecA splice inh 0.1.
Screening CC(=O)c1ccc(N2CCN(C(C)C(=O)NC3CCCc4ccccc43)CC2)cc1 (configuration not stated) returned Mtb bLac sens 2, Arbovirus inh -2, YopH inh -13, Mtb growth 5% and RecA splice inh 1.2.
For c1coc(CN2CCN(C(c3cccs3)c3nnnn3C3CCCC3)CC2)c1 (configuration not stated) the results were Mtb bLac sens -4, Arbovirus inh 2, YopH inh 0, Mtb growth -1% and RecA splice inh 0.9.
Screening COc1cccc2cc(C(C)N(CCCN3CCOCC3)C(=O)Nc3ccc(Cl)cc3)oc12 (configuration not stated) returned Mtb bLac sens -13, Arbovirus inh 2, YopH inh -34, Mtb growth 10% and RecA splice inh 2.1.
S=C(NCCN1CCOCC1)Nc1cccc(Cl)c1 was read as Mtb bLac sens 2, Arbovirus inh 15, YopH inh -9, Mtb growth 11% and RecA splice inh 1.0.
CCOc1cc(CNC(=O)CN2C(=O)c3ccccc3S2(=O)=O)ccc1OC was read as Mtb bLac sens 0, Arbovirus inh 5, YopH inh -16, Mtb growth -7%, RecA splice inh -0.7 and Arbovirus inh repeat 2.
Screening COc1ccc(/C=C2\SC(=S)N(CCC(=O)NC3=NCCS3)C2=O)cc1OC returned Mtb bLac sens 5, Arbovirus inh -6, YopH inh 32, Mtb growth -3% and RecA splice inh -5.7.
`CCOc1ccc(CSc2nc(C)cc(COC)c2C#N)cc1OCC` gave Mtb bLac sens -8 and RecA splice inh -1.1.
CN(C)CCn1c(=O)n(C2CCCCC2)c(=O)c2c3c(sc21)CCCCC3 was read as Mtb bLac sens 36 and RecA splice inh 1.6.
NS(=O)(=O)c1ccc(CCNC(=O)C2CCN(S(=O)(=O)c3ccc(Br)s3)CC2)cc1 was read as Mtb bLac sens 2, Arbovirus inh 7, Mtb growth 1% and RecA splice inh -3.2.
`Cc1nn(C)c(C)c1Sc1ccccc1N` gave Mtb bLac sens 16, Arbovirus inh 3, Mtb growth 8% and RecA splice inh 3.2.
COC(=O)[C@H](Cc1c[nH]c2ccccc12)NC(=O)Nc1ccccc1OC was read as Mtb bLac sens -3, Mtb growth -7% and RecA splice inh 1.8.
For COc1ccc(S(=O)(=O)NCC(=O)N(CC(=O)NCC2CCCO2)c2c(C)cccc2C)cc1 (configuration not stated) the results were Mtb bLac sens -10, Arbovirus inh 5, YopH inh -30, Mtb growth 1% and RecA splice inh -2.0.
Screening O=C1CC(=O)C(n2cncn2)C(c2c(F)cccc2Cl)C1 (configuration not stated) returned Mtb bLac sens 6, Arbovirus inh 1, YopH inh -34, Mtb growth -11% and RecA splice inh 8.1.
COc1cc(OC)c(OC)cc1CNC(=O)c1cc(=O)[nH]c2ccccc12 was read as Mtb bLac sens -5 and RecA splice inh -2.5.
For O=C(O)c1cccc(NC(=O)c2ccc3c(c2)C(=O)N(c2ccccc2)C3=O)c1 the results were Mtb bLac sens 6 and RecA splice inh 7.0.
Screening COc1ccc(C2=NN(c3ccccc3)C(=O)/C2=C\c2ccc(O)c(OC)c2)cc1 returned Mtb bLac sens -2, Arbovirus inh 12, Mtb growth -3% and RecA splice inh 93*.
O=C(O)c1ccc(N/N=C/c2ccc(-c3cccc(Cl)c3)o2)cc1 was read as Mtb bLac sens 35, Mtb growth 15% and RecA splice inh -20.
Screening Cc1noc(C)c1/C=N/Nc1ccccn1 returned Mtb bLac sens 0, Arbovirus inh -2, Mtb growth -11% and RecA splice inh -1.1.
`CCN1CCN(CC(=O)Nc2cc(C)on2)CC1` gave Mtb bLac sens -3, Arbovirus inh 8, Mtb growth 4% and RecA splice inh -2.5.
`CC(=O)NCC(=O)OCC(=O)c1ccc(C)cc1` gave Mtb bLac sens -5, Arbovirus inh 1, YopH inh -19, Mtb growth -2%, RecA splice inh -1.8 and Arbovirus inh repeat 0.
Cc1cc(=O)oc2cc(OCC(=O)N3CCN(C(=O)c4ccco4)CC3)ccc12 was read as Mtb bLac sens -6, Arbovirus inh 1, Mtb growth -7% and RecA splice inh 0.4.
CC1CN(c2ccc(NC(=O)c3ccco3)cc2C(=O)O)CC(C)O1 (configuration not stated) was read as Mtb bLac sens 4, Mtb growth -12% and RecA splice inh -1.9.
`O=C(Nc1ccc(F)cc1)NC1CCCc2ccccc21` (configuration not stated) gave Mtb bLac sens -6 and RecA splice inh -2.5.
For Cc1ccccc1N(C(=O)c1snc(C(N)=O)c1N)C(C(=O)NCC1CCCO1)c1ccc(F)cc1 (configuration not stated) the results were Mtb bLac sens 10 and RecA splice inh -4.1.
Screening Cc1ccc(NC(=O)COC(=O)c2cc(Cl)cc(Cl)c2)c(Br)c1 returned Mtb bLac sens 22, Arbovirus inh -3, YopH inh -29, Mtb growth 1% and RecA splice inh -3.2.
Screening O=C(Nc1ccc(Cl)cc1)c1ccc(S(=O)(=O)N2CCOCC2)cc1 returned Mtb bLac sens 3 and RecA splice inh 2.4.
`COc1ccccc1CNC(=O)CCS(=O)(=O)Cc1ccc(C)cc1` gave Mtb bLac sens -7 and RecA splice inh 1.1.
`Cc1ccc(CNC(=O)C2CCC(CNc3c(N4CCOCC4)c(=O)c3=O)CC2)cc1` (configuration not stated) gave Mtb bLac sens -7, Arbovirus inh 6, YopH inh -36, Mtb growth 0% and RecA splice inh 2.6.
For CCOc1ccc(CCNC(=O)Cn2cccc2C(=O)c2ccccc2C)cc1OCC the results were Mtb bLac sens 4, Arbovirus inh -3, YopH inh -19, Mtb growth 4% and RecA splice inh 1.9.
Screening CCc1cc(=O)oc2c(C)c(OCC(=O)NCCCn3ccnc3)ccc12 returned Mtb bLac sens 1 and RecA splice inh -2.4.
